A1 apoptosis 2 = A1 inhibition read as caspase activation; MEF A1-2A-BIM cells, caspase-Glo luminescence, 3 h; percent of clofoctol response, DMSO zero; caspase activation, % (no concentration beside the values); 24,000 tested, under 10 active; in the data active = caspase activation above about 5.9%;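 note: wells of about 30 µL received 50 nL stock; the first replicate is given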
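system = A1-2A-BIM-expressing MEF cells | quantity = 2500 MEF cells/well | dosing = 50 nL compound per well, pinned | schedule = overnight cell settling, then 3 h compound exposure, 37 °C | signal = luminescence from DEVD-luciferin Caspase-Glo reagent, 1:1 in 50 mM HEPES, 1 h RT | read-out = Caspase-3/7 activation, seen as rise in luminescence signal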
Numbers without * were called inactive. A portion of the library, so the mix of outcomes need not match the whole.

A first look, nine compounds:
SMILES | A1 apoptosis 2
COc1ccc(CN(C)C[C@H]2OCCCC[C@@H](C)Oc3ccc(NC(=O)NC4CCCCC4)cc3C(=O)N([C@@H](C)CO)C[C@@H]2C)cc1 | 0.5
C[C@@H]1CCCCO[C@@H](CN(C)CC2CC2)[C@@H](C)CN([C@H](C)CO)C(=O)c2cc(NS(=O)(=O)c3ccc(Cl)cc3)ccc2O1 | 0.0
COc1ccc(S(=O)(=O)N2CCN(Cc3cccc(OCCO)c3)CC2)cc1 | 0.3
C[C@@H]1CCCCO[C@H](CN(C)Cc2ccccc2)[C@@H](C)CN([C@H](C)CO)C(=O)c2cc(N(C)C)ccc2O1 | 0.3
C[C@@H]1CCCCO[C@@H](CN(C)Cc2ccncc2)[C@H](C)CN([C@@H](C)CO)C(=O)c2cc(NC(=O)Nc3ccc(C(F)(F)F)cc3)ccc2O1 | 0.5
C[C@@H]1CN([C@H](C)CO)C(=O)c2cccc(NC(=O)NC3CCCCC3)c2O[C@@H]1CN(C)C(=O)Nc1ccc(F)cc1 | 0.8
C[C@@H]1CN([C@@H](C)CO)C(=O)c2cc(NC(=O)Nc3cccc4ccccc34)ccc2O[C@@H](C)CCCCO[C@H]1CN(C)Cc1ccccc1 | -1.2
C[C@H](CO)N1C[C@H](C)[C@H](CN(C)Cc2ccc(Cl)c(Cl)c2)Oc2c(NC(=O)c3ccncc3)cccc2C1=O | 0.9
CC(C)NC(=O)N(C)C[C@@H]1Oc2ccc(NC(=O)Nc3ccccc3)cc2C(=O)N([C@@H](C)CO)C[C@@H]1C | 0.1

The whole of this part, previewed entries included:
SMILES | A1 apoptosis 2
COc1ccc(CN(C)C[C@H]2OCCCC[C@@H](C)Oc3ccc(NC(=O)NC4CCCCC4)cc3C(=O)N([C@@H](C)CO)C[C@@H]2C)cc1 | 0.5
C[C@@H]1CCCCO[C@@H](CN(C)CC2CC2)[C@@H](C)CN([C@H](C)CO)C(=O)c2cc(NS(=O)(=O)c3ccc(Cl)cc3)ccc2O1 | 0.0
COc1ccc(S(=O)(=O)N2CCN(Cc3cccc(OCCO)c3)CC2)cc1 | 0.3
C[C@@H]1CCCCO[C@H](CN(C)Cc2ccccc2)[C@@H](C)CN([C@H](C)CO)C(=O)c2cc(N(C)C)ccc2O1 | 0.3
C[C@@H]1CCCCO[C@@H](CN(C)Cc2ccncc2)[C@H](C)CN([C@@H](C)CO)C(=O)c2cc(NC(=O)Nc3ccc(C(F)(F)F)cc3)ccc2O1 | 0.5
C[C@@H]1CN([C@H](C)CO)C(=O)c2cccc(NC(=O)NC3CCCCC3)c2O[C@@H]1CN(C)C(=O)Nc1ccc(F)cc1 | 0.8
C[C@@H]1CN([C@@H](C)CO)C(=O)c2cc(NC(=O)Nc3cccc4ccccc34)ccc2O[C@@H](C)CCCCO[C@H]1CN(C)Cc1ccccc1 | -1.2
C[C@H](CO)N1C[C@H](C)[C@H](CN(C)Cc2ccc(Cl)c(Cl)c2)Oc2c(NC(=O)c3ccncc3)cccc2C1=O | 0.9
CC(C)NC(=O)N(C)C[C@@H]1Oc2ccc(NC(=O)Nc3ccccc3)cc2C(=O)N([C@@H](C)CO)C[C@@H]1C | 0.1
C[C@@H]1CN([C@H](C)CO)C(=O)c2cc(NS(=O)(=O)c3ccc(F)cc3)ccc2O[C@@H](C)CCCCO[C@@H]1CN(C)C(=O)Cc1ccccc1 | 0.1
Cc1noc(C)c1NC(=O)Nc1ccc2c(c1)CC(=O)N([C@@H](C)CO)C[C@H](C)[C@H](CN(C)S(C)(=O)=O)O2 | 1.0
C[C@@H]1CCCCO[C@H](CN(C)S(=O)(=O)c2ccc(F)cc2)[C@@H](C)CN([C@H](C)CO)C(=O)c2cc(NC(=O)Nc3ccc4c(c3)OCO4)ccc2O1 | -1.0
C[C@@H]1CN([C@H](C)CO)C(=O)c2cc(NC(=O)CCC(F)(F)F)ccc2O[C@@H]1CN(C)CC1CCCCC1 | 1.4
C[C@@H]1CN([C@@H](C)CO)C(=O)c2cc(NS(=O)(=O)c3ccccc3)ccc2O[C@@H]1CN(C)Cc1ccc(Cl)c(Cl)c1 | -2.0
C[C@@H]1CN([C@@H](C)CO)C(=O)Cc2cc(NC(=O)Cc3ccccc3)ccc2O[C@H]1CN(C)Cc1ccncc1 | -1.0
C[C@@H]1CCCCO[C@@H](CN(C)C(=O)CCC(F)(F)F)[C@@H](C)CN([C@H](C)CO)C(=O)c2cc(NC(=O)Nc3ccc4c(c3)OCO4)ccc2O1 | 0.7
C[C@@H]1CCCCO[C@H](CN(C)C(=O)C2CCCCC2)[C@@H](C)CN([C@H](C)CO)C(=O)c2cc(NC(=O)Nc3cccc4ccccc34)ccc2O1 | 0.5
CC(C)(C)NC(=O)C(COCc1ccccc1)OC(=O)c1ccccc1 (stereo not drawn) | 0.0
C[C@H](CO)N1C[C@H](C)[C@@H](CN(C)Cc2ccc(-c3ccccc3)cc2)Oc2ccc(N(C)C)cc2C1=O | -1.1
C[C@H]1CN([C@@H](C)CO)C(=O)c2cccc(NC(=O)Nc3ccc4c(c3)OCO4)c2O[C@@H]1CN(C)S(=O)(=O)c1cn(C)cn1 | -1.0
Cc1noc(C)c1NC(=O)Nc1cccc2c1O[C@@H](CN(C)C(=O)Nc1cccc3ccccc13)[C@H](C)CN([C@@H](C)CO)C2=O | -0.1
Cc1ccccc1/C=N/NC(=O)c1ccccn1 | -11
C[C@@H]1CN([C@@H](C)CO)C(=O)c2cc(NC(=O)NC3CCCCC3)ccc2O[C@H]1CN(C)C(=O)Nc1ccc2c(c1)OCO2 | 0.4
C[C@H]1CN([C@@H](C)CO)C(=O)Cc2cc(NC(=O)CCCCCC(=O)Nc3ccccc3N)ccc2O[C@@H]1CN(C)Cc1ccncc1 | -0.7
O=C(CCCCCC(=O)N/N=C/C1=CCCCC1)NO | 0.9
C[C@@H]1CCCCO[C@@H](CN(C)S(=O)(=O)c2cn(C)cn2)[C@H](C)CN([C@@H](C)CO)C(=O)c2cc(NC(=O)NC3CCCCC3)ccc2O1 | -0.1
C[C@@H]1CN([C@H](C)CO)C(=O)Cc2cc(NC(=O)CCC(F)(F)F)ccc2O[C@@H]1CN(C)S(=O)(=O)c1ccc(F)cc1 | -0.3
C[C@@H]1CN([C@@H](C)CO)C(=O)c2cc(NS(=O)(=O)c3ccc(F)cc3)ccc2O[C@@H]1CN(C)C(=O)Nc1ccc(C(F)(F)F)cc1 | 1.0
C[C@@H]1CN([C@H](C)CO)C(=O)CCCn2nncc2CO[C@H]1CN(C)S(=O)(=O)c1cn(C)cn1 | -0.1
COc1ccc(S(=O)(=O)Nc2ccc3c(c2)C(=O)N([C@@H](C)CO)C[C@@H](C)[C@@H](CN(C)C(=O)Nc2ccc(F)cc2)OCCCC[C@@H](C)O3)cc1 | 0.1
C[C@@H]1CN([C@H](C)CO)C(=O)c2cc(NC(=O)CCCN(C)C)ccc2O[C@H]1CN(C)C(=O)Nc1ccccc1 | 0.1
C[C@@H]1CCCCO[C@@H](CN(C)C(=O)CCCN(C)C)[C@H](C)CN([C@H](C)CO)C(=O)c2cc(NC(=O)Nc3ccc(F)cc3)ccc2O1 | 0.2
Cc1ccc(S(=O)(=O)Nc2ccc3c(c2)C(=O)N([C@H](C)CO)C[C@H](C)[C@H](CN(C)Cc2ccc(C(=O)O)cc2)OCCCC[C@@H](C)O3)cc1 | -0.1
COc1ccc(NC(=O)Nc2ccc3c(c2)CC(=O)N([C@@H](C)CO)C[C@@H](C)[C@H](CN(C)S(=O)(=O)c2ccc(OC)cc2)O3)cc1 | -0.7
C[C@@H]1CN([C@H](C)CO)C(=O)c2cccc(NC(=O)C3CCOCC3)c2O[C@@H]1CN(C)Cc1ccc2c(c1)OCO2 | 0.1
CCO[C@@H]1OC(C(=O)N2CCN(C)CC2)=C[C@H](c2ccccc2)[C@H]1CCCO | -0.3
C[C@H](CO)N1C[C@H](C)[C@H](CN(C)S(=O)(=O)c2cn(C)cn2)Oc2ncc(Br)cc2C1=O | 0.0
C[C@@H]1CN([C@@H](C)CO)C(=O)Cc2cc(NC(=O)Nc3cccc4ccccc34)ccc2O[C@H]1CN(C)Cc1ccc(-c2ccccc2)cc1 | 0.9
CC(C)NC(=O)N(C)C[C@H]1OCCCC[C@@H](C)Oc2ccc(NC(=O)c3ccncc3)cc2C(=O)N([C@H](C)CO)C[C@@H]1C | 0.3
C[C@H]1CN([C@@H](C)CO)C(=O)c2cc(NC(=O)Nc3ccc4c(c3)OCO4)ccc2O[C@H]1CN(C)C(=O)NC1CCCCC1 | 0.1
C[C@@H]1CCCCO[C@@H](CN(C)C(=O)Nc2cccc3ccccc23)[C@@H](C)CN([C@H](C)CO)C(=O)c2cc(NS(C)(=O)=O)ccc2O1 | -0.4
Cc1noc(C)c1S(=O)(=O)Nc1ccc2c(c1)C(=O)N([C@H](C)CO)C[C@H](C)[C@@H](CN(C)Cc1ccc(C(=O)Nc3ccccc3N)cc1)OCCCC[C@@H](C)O2 | -1.4
C[C@@H]1CN([C@H](C)CO)C(=O)CCCn2nncc2CO[C@@H]1CN(C)C(=O)Nc1cccc2ccccc12 | 0.7
COc1ccc(S(=O)(=O)Nc2cccc3c2O[C@@H](CN(C)S(=O)(=O)c2cccs2)[C@H](C)CN([C@H](C)CO)C3=O)cc1 | 1.4
C[C@H]1CN([C@@H](C)CO)C(=O)Cc2cc(NC(=O)CCCCCC(=O)Nc3ccccc3N)ccc2O[C@H]1CN(C)C(=O)Nc1ccc2c(c1)OCO2 | 0.6
C=CCN1C(=O)[C@]2(O[C@H](CCO)[C@@H]([Si](C)(C)c3ccc(OC)cc3)[C@@H]2C)c2cc(N3CCC3=O)ccc21 | -0.7
C[C@H](CO)N1C[C@H](C)[C@@H](CN(C)Cc2ccc(Cl)c(Cl)c2)OCCCC[C@H](C)Oc2ccc(NS(=O)(=O)c3cn(C)cn3)cc2C1=O | -0.4
COc1ccc(S(=O)(=O)N(C)C[C@H]2Oc3c(cccc3N(C)C)C(=O)N([C@@H](C)CO)C[C@@H]2C)cc1 | 0.2
C[C@H](CO)N1C[C@H](C)[C@H](CN(C)Cc2ccc(C(F)(F)F)cc2)Oc2ccc(NC(=O)Nc3ccc4c(c3)OCO4)cc2C1=O | -0.8
CNC[C@@H]1OCCCC[C@H](C)Oc2ccc(NC(=O)Nc3ccccc3)cc2C(=O)N([C@H](C)CO)C[C@@H]1C | 0.8
C[C@@H]1CN([C@@H](C)CO)C(=O)c2cccc(NC(=O)Nc3ccccc3)c2O[C@@H]1CN(C)C(=O)Nc1ccc(F)cc1 | -0.3
C[C@H]1CN([C@@H](C)CO)C(=O)c2cccc(NS(C)(=O)=O)c2O[C@@H]1CN(C)S(=O)(=O)c1ccc(Cl)cc1 | -0.9
C[C@@H]1CN([C@H](C)CO)C(=O)Cc2cc(NS(=O)(=O)c3ccc(Cl)cc3)ccc2O[C@H]1CN(C)S(=O)(=O)c1ccc(F)cc1 | -0.3
CN1C(=O)[C@@H]2[C@@H](CC(COc3ccccc3)=C3[C@@H](c4ccccc4)OB(O)C[C@@H]32)C1=O | 0.5
C[C@H](CO)N1C[C@H](C)[C@H](CN(C)C(=O)NC2CCCC2)Oc2ncc(-c3cccc(F)c3)cc2C1=O | 1.2
C[C@@H]1CCCCO[C@H](CN(C)Cc2ccc(Cl)c(Cl)c2)[C@@H](C)CN([C@H](C)CO)C(=O)c2cc(NC(=O)c3ccccc3)ccc2O1 | 1.1
C[C@H]1CN([C@@H](C)CO)C(=O)c2cccc(NC(=O)C3CC3)c2O[C@@H]1CN(C)C(=O)Nc1ccc(C(F)(F)F)cc1 | -0.6
C[C@H](CO)N1C[C@H](C)[C@@H](CN(C)S(C)(=O)=O)Oc2ccc(NC(=O)Nc3cccc4ccccc34)cc2C1=O | 0.8
CNC[C@H]1Oc2ccc(NS(=O)(=O)c3ccc(F)cc3)cc2C(=O)N([C@@H](C)CO)C[C@@H]1C | 0.0
COc1ccc(NC(=O)N(C)C[C@@H]2Oc3ccc(NC(=O)C4CCCCC4)cc3C(=O)N([C@H](C)CO)C[C@H]2C)cc1 | 0.7
The results go on.
SMILES | A1 apoptosis 2
COc1ccc(NC(=O)Nc2ccc3c(c2)C(=O)N([C@@H](C)CO)C[C@@H](C)[C@H](CN(C)Cc2ccc(C(F)(F)F)cc2)O3)cc1 | -0.2
CCCN(C)C[C@H]1OCCCC[C@@H](C)Oc2ccc(N(C)C)cc2C(=O)N([C@@H](C)CO)C[C@H]1C | -1.1
C[C@@H]1CN([C@H](C)CO)C(=O)c2cc(NS(=O)(=O)c3ccc(F)cc3)ccc2O[C@H]1CN(C)C(=O)NC1CCCCC1 | 1.3
C[C@@H]1CN([C@@H](C)CO)C(=O)c2cccc(NC(=O)C3CC3)c2O[C@@H]1CN(C)CC1CCCCC1 | -0.1
COc1ccc(NC(=O)Nc2ccc3c(c2)CC(=O)N([C@@H](C)CO)C[C@@H](C)[C@H](CN(C)S(=O)(=O)c2ccccc2)O3)cc1 | -0.8
CC(C)NC(=O)Nc1ccc2c(c1)C(=O)N([C@H](C)CO)C[C@@H](C)[C@H](CN(C)C(=O)NC(C)C)O2 | 0.2
C[C@H](CO)N1C[C@H](C)[C@H](CN(C)Cc2ccc(O)cc2)OCc2cnnn2CCCC1=O | 0.1
COc1ccc(NC(=O)Nc2ccc3c(c2)CC(=O)N([C@@H](C)CO)C[C@@H](C)[C@@H](CN(C)Cc2ccc(C(=O)Nc4ccccc4N)cc2)O3)cc1 | 0.6
C[C@@H]1CCCCO[C@@H](CN(C)C(=O)Cc2ccccc2)[C@@H](C)CN([C@@H](C)CO)C(=O)c2cc(NS(C)(=O)=O)ccc2O1 | -0.4
C[C@@H]1CCCCO[C@H](CN(C)Cc2ccc(C(F)(F)F)cc2)[C@H](C)CN([C@@H](C)CO)C(=O)c2cc(NS(=O)(=O)c3cccs3)ccc2O1 | -0.5
C[C@@H]1CCCCO[C@@H](CN(C)S(=O)(=O)c2ccc(F)cc2)[C@H](C)CN([C@@H](C)CO)C(=O)c2cc(NS(=O)(=O)c3ccccc3)ccc2O1 | 0.2

Source: PubChem (Broad Institute)
